High-throughput results: PubChem, Broad Institute
YB-1 expr inh: YB-1 expression inhibition; AID 434959; U2OS, qRT-PCR YB-1 vs CDIP delta delta Cp, 16 h; hits give high values; zero = DMSO, each unit about twofold; delta delta Cp (YB-1 minus CDIP) (no concentration beside the values); actives 0.37% (n = 30,000);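 active = delta delta Cp rounded down to an integer at or above 3, about 3 SD of DMSO wells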;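 also: higher means less YB-1 transcript or more CDIP transcript relative to DMSO; stock transfer was 100 nL into about 100 µL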
MITF inhib: MITF inhibition; inhibition, % (concentration not given with the values); TRPM1 promoter luciferase, luminescence, 24 h; actives 0.28% (n = 37,000);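 active = most replicates at 85% or more, or half of them and the mean; inconclusive = half reach 85% but not the mean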;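 also: human melanocyte line stably carrying TRPM1 promoter luciferase reporter; 0% = vehicle wells and 100% = a positive control; the first replicate is given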
PD-1 reverse act: activators reversing PD-1 mediated T-cell inhibition; primary human CD4 T cells, PD-L1 beads, CellTiter-Glo 96 h; activation, % (test concentration not listed); 29,000 tested, under 10 active; AID 2316;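 active = replicate mean of 50% or more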;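 also: 0% = median vehicle wells and 100% = positive control; 100 nL library stock added to about 50 µL; numbers are from one replicate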
Shh pathway inh: blocks Sonic Hedgehog signaling; Shh-LIGHT2 Gli-luciferase reporter, 30 h; inhibition, % (test concentration not listed); actives 2.1% (n = 22,000);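 active = replicate mean of 65% or more; inconclusive = mean lower but half the replicates past it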;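 also: pathway switched on by Shh-conditioned medium diluted 1 in 25 in low serum; 100 nL library stock added to about 40 µL; 0% = median of neutral wells and 100% = positive control level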
Starred values were filed as active, the others as inactive; ? = inconclusive; nt = not tested or not shown.

SMILES	YB-1 expr inh	MITF inhib	PD-1 reverse act	Shh pathway inh
Cc1ccc(S(=O)(=O)Nc2cccc3c2O[C@@H](CN(C)Cc2ccc(C(=O)O)cc2)[C@@H](C)CN([C@@H](C)CO)C3=O)cc1	-0.0102	-5.2	1.9	-7.3
Cc1ccc(NC(=O)c2ccco2)c(NC(=O)CCN2C(=O)c3ccccc3C2=O)c1	nt	-15.8	0.4	nt
CS(=O)(=O)N(CC(=O)Nc1ccccc1C(=O)N1CCOCC1)c1ccc(I)cc1	nt	2.2	-0.1	nt
C[C@@H]1CCCCO[C@@H](CN(C)S(=O)(=O)c2ccccc2)[C@@H](C)CN([C@H](C)CO)C(=O)c2cc(NC(=O)Cc3ccccc3)ccc2O1	-0.0521	8.6	-3.5	3.8
C[C@H](CO)N1C[C@H](C)[C@@H](CN(C)C(=O)Nc2cccc3ccccc23)Oc2c(NC(=O)C3CC3)cccc2C1=O	-0.226	-0.8	0.4	-33.6
Cc1cc(O)cc(=O)n1Cc1cccnc1	0.172	-4.6	-0.2	nt
CC(=O)Nc1ccc(NC(=O)CSc2nnc(-c3ccc(N)cc3)n2C)cc1	nt	-7.7	0.9	nt
COc1ccc(OCC(=O)Nc2ccc3nn(-c4ccc(Cl)cc4)nc3c2)cc1	nt	-65.1	4.5	nt
C[C@H](CO)N1C[C@H](C)[C@H](CN(C)C(=O)Nc2ccc(F)cc2)Oc2c(NC(=O)Nc3cccc4ccccc34)cccc2C1=O	-0.0933	?	-10.2	28.0
CCc1ccccc1N(CC(=O)O)S(C)(=O)=O	nt	-11.7	2.6	nt
C[C@@H]1CN([C@@H](C)CO)C(=O)Cc2cc(NC(=O)Nc3ccc(F)cc3)ccc2O[C@@H]1CN(C)S(=O)(=O)c1cn(C)cn1	-0.291	-8.8	nt	-23.5
C[C@@H]1CC[C@]2(C(=O)O)CC[C@]3(C)C(=CCC4[C@@]5(C)C[C@@H](O)[C@@H](O)C(C)(C)C5CC[C@]43C)C2[C@]1(C)O (stereo partly drawn)	0.32	-14.8	1.3	-30.8
COc1ccc(S(=O)(=O)N(C)C[C@@H]2Oc3ccc(NC(=O)C4CCCCC4)cc3C(=O)N([C@@H](C)CO)C[C@H]2C)cc1	0.0331	6.5	-1.1	nt
Cc1ccc(S(=O)(=O)Nc2ccc3c(c2)C(=O)N([C@@H](C)CO)C[C@H](C)[C@H](CN(C)S(=O)(=O)c2cn(C)cn2)O3)cc1	-0.224	-17.5	2.0	-15.3
COc1ccc(N(C(=O)c2ccccc2)S(=O)(=O)c2cc(OC)ccc2OC)cc1	nt	69.7	-3.1	nt
CC[C@@H](CO)Nc1nc(NCc2ccccc2)c2ncn(C(C)C)c2n1	-0.257	29.5	6.0	44.6
COc1c(-c2ccc(O)cc2)oc2cc(O)cc(O)c2c1=O	0.987	-14.4	-0.1	-8.9
C[C@H]1CN([C@@H](C)CO)C(=O)Cc2cc(NC(=O)Cn3cnnn3)ccc2O[C@@H]1CN(C)Cc1ccncc1	-1.11	-4.4	-2.6	-13.2
CCOc1ccc(NC(=O)CSc2nc3sc(C)c(C)c3c(=O)n2-c2ccc(C)cc2)cc1	nt	-2.6	1.0	nt
C[C@H]1CN([C@@H](C)CO)C(=O)Cc2cc(NS(=O)(=O)c3ccc(F)cc3)ccc2O[C@@H]1CN(C)C	-0.0574	-4.1	nt	-6.1
C[C@H](CO)N1C[C@H](C)[C@H](CN(C)C(=O)Nc2ccccc2)Oc2ccc(N(C)C)cc2C1=O	-0.872	1.7	1.8	8.2
COc1ccc(C(=O)n2nc3c(c2-c2ccc(OC)cc2)COC(C)(C)C3)cc1	-0.134	-65.5	1.4	-37.1
C[C@H]1CN([C@@H](C)CO)C(=O)Cc2cc(NS(=O)(=O)c3cn(C)cn3)ccc2O[C@H]1CN(C)Cc1ccc(Cl)c(Cl)c1	0.125	-5.7	1.3	13.6
C[C@H](CO)N1C[C@H](C)[C@@H](CN(C)Cc2ccccc2)Oc2ccc(NC(=O)Nc3ccc4c(c3)OCO4)cc2C1=O	0.135	-3.6	3.2	nt
C[C@H]1[C@H](C)CC[C@]2(C(=O)O)CC[C@]3(C)C(=CC[C@@H]4[C@@]5(C)CC[C@H](O)C(C)(C)[C@@H]5CC[C@]43C)[C@H]12	1.45	-24.4	-2.2	-107.1
COC(=O)c1cc(NC(=O)CN2C(=O)c3cccc4cccc2c34)ccc1Cl	nt	20.2	1.7	nt
CC1OC(O[C@H]2CC[C@@]3(C)C(CC[C@]4(C)C3CC=C3[C@@H]5CC(C)(C)C[C@@H](O)[C@]5(C)CC[C@]34C)[C@@]2(C)CO)C(OC2OC(C(=O)O)C(O)C(O)C2OC2OCC(O)C(O)C2O)C(O)C1O (stereo partly drawn)	-0.0181	6.6	0.8	-12.4
COc1ccc(S(=O)(=O)N(C)C[C@H]2Oc3ccc(NC(=O)Cn4cnnn4)cc3C(=O)N([C@@H](C)CO)C[C@@H]2C)cc1	-0.154	8.7	0.0	nt
CC(C)S(=O)(=O)c1csc(C(=O)OCC(=O)c2ccc(Cl)cc2)c1N	-0.101	4.6	0.5	nt
CNC[C@@H]1Oc2ccc(NC(=O)Nc3ccc(OC)cc3)cc2CC(=O)N([C@H](C)CO)C[C@H]1C	0.304	-13.3	1.3	-44.2
C[C@H](CO)N1C[C@H](C)[C@@H](CN(C)Cc2ccncc2)Oc2ccc(NC(=O)Cc3cn(C)c4ccccc34)cc2C1=O	-0.297	23.2	-2.3	2.8
COc1cc2ncc(-c3ccccc3)nc2cc1OC	-0.165	-29.5	1.8	25.7
COc1cc(CO)ccc1OCC(=O)Nc1ccc(Br)cc1	nt	-86.1	0.3	nt
COc1cc(N)c(Cl)cc1C(=O)O	-0.934	10.6	1.0	nt
O=C(COc1ccc(S(=O)(=O)N2CCOCC2)cc1)Nc1ccc(Cl)c(C(F)(F)F)c1	nt	18.5	-2.7	nt
CC(=O)Cn1c2ccccc2n2nc(CCC(=O)O)c(=O)nc12	nt	-23.1	1.7	nt
COc1ccc(CCN2C(=O)c3oc4ccc(C)cc4c(=O)c3C2c2cccc([N+](=O)[O-])c2)cc1OC (stereo not drawn)	nt	-11.8	-0.9	nt
C[C@@H]1CN([C@@H](C)CO)C(=O)c2cc(NC(=O)Nc3cccc4ccccc34)ccc2O[C@@H]1CN(C)CC1CCCCC1	0.505	-52.0	-2.7	39.1
O=C1CNC(=S)N1CCOc1ccccc1Cl	-0.0738	-3.4	-3.2	-25.5
C[C@H](CO)N1C[C@H](C)[C@H](CN(C)CC2CCCCC2)Oc2ccc(NC(=O)CCCCCC(=O)Nc3ccccc3N)cc2CC1=O	-0.217	6.7	-0.7	nt
COc1ccc(NC(=O)Nc2ccc3c(c2)C(=O)N([C@H](C)CO)C[C@H](C)[C@@H](CN(C)S(=O)(=O)c2ccc(OC)cc2)OCCCC[C@@H](C)O3)cc1	-0.364	25.2	nt	nt
C[C@H]1CN([C@@H](C)CO)C(=O)c2cc(NC(=O)Nc3ccc4c(c3)OCO4)ccc2O[C@@H]1CN(C)C(=O)Nc1ccc(C(F)(F)F)cc1	0.242	20.1	-0.6	9.4
C[C@@H]1CN([C@H](C)CO)C(=O)c2cccc(NC(=O)c3nc4ccccc4s3)c2O[C@H]1CN(C)CC1CC1	-0.591	14.3	-1.5	-30.0
Cc1noc(C)c1NC(=O)N(C)C[C@@H]1Oc2ccc(NC(=O)CCC(F)(F)F)cc2CC(=O)N([C@@H](C)CO)C[C@@H]1C	-0.0899	-13.2	1.5	-20.8
C[C@@H]1CN([C@H](C)CO)C(=O)c2cccc(NC(=O)c3cnccn3)c2O[C@H]1CN(C)Cc1ccc(C(F)(F)F)cc1	0.252	-4.2	-2.2	19.8
C[C@H](CO)N1C[C@H](C)[C@H](CN(C)CC2CC2)Oc2c(NC(=O)Nc3ccc(C(F)(F)F)cc3)cccc2C1=O	-0.0362	-10.0	0.2	-48.0
C#C[C@]1(O)CC[C@H]2[C@@H]3CCC4=C(CCC(=O)C4)[C@H]3CC[C@@]21C	0.0381	0.6	nt	17.9
C[C@H](CO)N1C[C@H](C)[C@H](CN(C)C(=O)Nc2ccc3c(c2)OCO3)Oc2c(NC(=O)c3nc4ccccc4s3)cccc2C1=O	0.151	-32.9	nt	9.8

Four records drawn at random from those above:
SMILES	YB-1 expr inh	MITF inhib	PD-1 reverse act	Shh pathway inh
C[C@H](CO)N1C[C@H](C)[C@H](CN(C)C(=O)Nc2ccc3c(c2)OCO3)Oc2c(NC(=O)c3nc4ccccc4s3)cccc2C1=O	0.151	-32.9	nt	9.8
C#C[C@]1(O)CC[C@H]2[C@@H]3CCC4=C(CCC(=O)C4)[C@H]3CC[C@@]21C	0.0381	0.6	nt	17.9
O=C1CNC(=S)N1CCOc1ccccc1Cl	-0.0738	-3.4	-3.2	-25.5
C[C@H]1CN([C@@H](C)CO)C(=O)c2cc(NC(=O)Nc3ccc4c(c3)OCO4)ccc2O[C@@H]1CN(C)C(=O)Nc1ccc(C(F)(F)F)cc1	0.242	20.1	-0.6	9.4

Later entries.
SMILES	YB-1 expr inh	MITF inhib	PD-1 reverse act	Shh pathway inh
C[C@@H]1CN([C@@H](C)CO)C(=O)c2cc(NS(=O)(=O)c3ccccc3)ccc2O[C@@H]1CN(C)Cc1ccc2c(c1)OCO2	-0.261	6.2	2.2	11.1
CS(=O)(=O)N(CC(=O)Nc1ccc(Cl)c(C(F)(F)F)c1)c1cccc(C(F)(F)F)c1	nt	27.3	-5.6	nt
C[C@H]1CN([C@@H](C)CO)C(=O)Cc2cc(NC(=O)Nc3ccccc3)ccc2O[C@@H]1CN(C)CC1CC1	-0.0635	-8.6	0.4	nt
C[C@@H]1CCCCO[C@H](CN(C)CC2CCCCC2)[C@@H](C)CN([C@H](C)CO)C(=O)c2cc(NS(=O)(=O)c3cn(C)cn3)ccc2O1	-0.166	0.1	nt	-2.7
C[C@@H]1CN([C@H](C)CO)C(=O)Cc2cc(NC(=O)Cn3cnnn3)ccc2O[C@H]1CN(C)Cc1ccc2c(c1)OCO2	0.346	3.1	1.5	-32.9
C[C@H](CO)N1C[C@H](C)[C@@H](CN(C)C(=O)NC2CCCCC2)Oc2ccc(NC(=O)Nc3ccccc3)cc2C1=O	-0.173	-5.5	0.6	nt
C[C@H](CO)N1C[C@H](C)[C@@H](CN(C)Cc2ccccc2)Oc2ccc(NC(=O)Cn3cnnn3)cc2C1=O	0.107	-2.3	3.1	5.8
COC(=O)c1cccc(NC(=O)CSc2nc(=O)cc(N)n2-c2ccccc2)c1	nt	4.4	0.3	nt
C=C1CCC2C(C)(C)C(O)CCC2(C)C1CC/C(C)=C/C(=O)O (stereo not drawn)	0.00106	0.0	1.4	4.6
COc1ccc(C=Nc2ccc(Br)cc2)cc1	0.195	-13.5	0.3	69.1*
COc1ccc(NC(=O)Nc2ccc3c(c2)C(=O)N([C@H](C)CO)C[C@H](C)[C@H](CN(C)Cc2ccc(Oc4ccccc4)cc2)O3)cc1	-0.0927	22.9	1.7	nt
Cc1noc(C)c1NC(=O)Nc1ccc2c(c1)C(=O)N([C@@H](C)CO)C[C@@H](C)[C@H](CN(C)C(=O)Nc1ccccc1)O2	-0.223	-8.8	1.3	10.3
Cc1ccc(S(=O)(=O)N(C)C[C@H]2Oc3ccc(NC(=O)Nc4cccc5ccccc45)cc3CC(=O)N([C@@H](C)CO)C[C@@H]2C)cc1	-0.225	17.4	-1.7	45.2
O=C(O)/C=C/CCCCCCCC(=O)O	0.251	-0.7	1.4	-5.7
C[C@@H]1CN([C@H](C)CO)C(=O)c2cccc(NS(=O)(=O)c3cn(C)cn3)c2O[C@H]1CN(C)Cc1ccc(Oc2ccccc2)cc1	-0.115	-9.0	0.7	19.8
C[C@H](CO)N1C[C@H](C)[C@@H](CN(C)CC2CC2)Oc2c(NS(=O)(=O)c3ccc(Cl)cc3)cccc2C1=O	-0.136	2.6	1.3	5.0
NC(=O)c1c(NC(=O)COc2ccc3ccccc3c2)sc2c1CCCCCC2	nt	12.9	1.2	nt
CC(=O)C(O)(C(=O)OCc1ccc(O[C@@H]2O[C@H](CO)[C@@H](O)[C@H](O)[C@H]2O)cc1)C(C)C (stereo partly drawn)	2.73	-3.7	-3.6	-7.7
COc1ccc(CN(C)C[C@@H]2Oc3ccc(NS(C)(=O)=O)cc3C(=O)N([C@@H](C)CO)C[C@H]2C)cc1	-0.109	1.4	1.0	-14.6
NNc1nncc2ccccc12	0.168	-7.9	nt	35.2
C[C@@H]1CN([C@@H](C)CO)C(=O)c2cc(NS(=O)(=O)c3ccc(Cl)cc3)ccc2O[C@H]1CN(C)S(=O)(=O)c1cccs1	-0.185	-4.3	-0.6	nt
CCNc1nc(NC(C)(C)C)nc(SCC(N)=O)n1	nt	1.3	-0.7	nt
Cn1nnnc1SCC1=C(C(=O)O)N2C(=O)[C@@H](NC(=O)[C@H](O)c3ccccc3)[C@H]2SC1	-0.144	2.5	nt	?
CC(C)NC(=O)Nc1ccc2c(c1)C(=O)N([C@H](C)CO)C[C@H](C)[C@H](CN(C)C(=O)c1ccccc1)OCCCC[C@@H](C)O2	-0.183	-1.0	1.9	4.1

Some of the compounds tested (hit frequency here may not be typical).
